High-throughput results: PubChem, several laboratories
RGS16-Gao HTS – modulators of RGS16 binding to Galphao, primary screen, biochemical, human proteins, multiplexed bead flow cytometry; hit rate 0.38% among 220,000; binding response (% of control), % at 10 µM; Regulator of G-protein signaling 16 (Homo sapiens) + Guanine nucleotide-binding protein …; bead-based flow cytometry RGS16-Galphao binding, fluorescence; actives lie on both sides; AID 1441, 2008;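 active means below 25% or above 175%, edge rows of some plates excepted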;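 further: Galphao activated by GDP with aluminum fluoride before binding; 100% = wells without compound and 0% = beads without RGS; some results beyond the cut were filed as inactive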
GALR2 agonist – GALR2 receptor agonists, primary screen, cell-based. activation, %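 (tested at 5 µM)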. GALR2-expressing cells, agonist activation read-out. hit rate 0.48% among 140,000. Galanin receptor type 2 (Homo sapiens), O43603;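 active means above mean plus 3 SD of all compounds, about 5% in these data, not always enough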;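 further: 0% = vehicle buffer wells and 100% = reference agonist at full effect; tested in CHO reporter cells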
PKD1 inh – inhibitors of human PKD1 kinase, biochemical, fluorescence polarization. AID 797, 2007. inhibition, %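 (about 10 µM by stock and volumes)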. PKD1 kinase fluorescence polarization assay. hit rate 0.056% among 200,000;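 active means inhibition of 50% or more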;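 further: controls were vehicle for no effect and a reference inhibitor for full effect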
Target sequence (Q15139 whole entry, looked up): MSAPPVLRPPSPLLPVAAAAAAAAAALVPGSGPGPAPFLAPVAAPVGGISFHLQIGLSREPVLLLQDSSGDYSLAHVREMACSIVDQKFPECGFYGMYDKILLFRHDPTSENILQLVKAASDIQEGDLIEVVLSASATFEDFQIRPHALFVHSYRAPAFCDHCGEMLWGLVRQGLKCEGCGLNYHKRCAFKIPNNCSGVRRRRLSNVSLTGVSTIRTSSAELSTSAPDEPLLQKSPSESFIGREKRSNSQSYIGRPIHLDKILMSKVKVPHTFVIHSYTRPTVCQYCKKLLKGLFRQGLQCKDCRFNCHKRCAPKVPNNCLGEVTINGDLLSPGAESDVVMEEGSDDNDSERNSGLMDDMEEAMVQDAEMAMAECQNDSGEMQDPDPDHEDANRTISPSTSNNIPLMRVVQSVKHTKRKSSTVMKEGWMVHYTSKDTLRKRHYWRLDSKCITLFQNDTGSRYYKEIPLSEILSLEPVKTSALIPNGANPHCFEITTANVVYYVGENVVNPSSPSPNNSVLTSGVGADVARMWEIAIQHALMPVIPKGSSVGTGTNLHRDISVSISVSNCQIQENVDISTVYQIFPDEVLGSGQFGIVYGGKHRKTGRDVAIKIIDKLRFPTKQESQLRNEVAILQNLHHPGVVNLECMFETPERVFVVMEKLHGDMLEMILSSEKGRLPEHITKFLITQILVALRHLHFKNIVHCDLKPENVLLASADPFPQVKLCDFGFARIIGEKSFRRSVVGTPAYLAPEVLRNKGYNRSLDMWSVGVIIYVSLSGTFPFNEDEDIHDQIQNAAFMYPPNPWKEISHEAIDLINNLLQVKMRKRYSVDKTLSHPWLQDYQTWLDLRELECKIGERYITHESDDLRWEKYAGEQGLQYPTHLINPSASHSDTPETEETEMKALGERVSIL
Insulin prom inh – inhibitors of insulin promoter-driven GFP, primary screen, imaging, TRM-6 cells (human fetal islet line), eGFP reporter, cell count; inhibition, % at 2 µM; hit rate 0.9% among 130,000; reporter expression induced with tamoxifen;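 active means inhibition above the mean plus 3 SD, with well images judged a real hit on visual review, cut at about 60% in these data, passing the limit was not always enough; inconclusive means inhibition over the cutoff but images rejected on review; inactive means inhibition not above the cutoff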
HSV replic up – enhancers of HSV replication in host cells, fold increase, host cell viability | HSV replication augmentation in cells | maximum fold increase | hit rate 0.005% among 220,000 | AID 1956, 2009;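 active means peak rise of 1.5-fold or more in the series; inconclusive means self-fluorescent or not available for retest; tested in PC3 cells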;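 further: first round at 10 µM; read as green reporter fluorescence; hits show the peak of a series up to 25 µM; 1 = signal of infected wells without compound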
Insulin prom inh cell count – further read-out of Insulin prom inh, marked with its call; normalized cell count, %; measured here: cell count, toxicity; reference of the scale not given here;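 cells exposed to compound for 48 h; stained nuclei by imaging scaled within each plate; lower means fewer cells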
HSV replic up primary fold – recorded beside HSV replic up, whose call it bears; fold increase; compound at 10 µM; measured here: primary screen fold increase 10 uM; tested in PC3 cells;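 GFP signal in the first replicate; 1 = infected wells without compound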
* marks the source's active call; other numbers are inactive results; i = inactive; ? = inconclusive; nt = no result given.

SMILES	RGS16-Gao HTS	GALR2 agonist	PKD1 inh	Insulin prom inh	Insulin prom inh cell count	HSV replic up	HSV replic up primary fold
CCOC(=O)N1CCC(=NNc2nc3ccccc3s2)CC1	80	nt	nt	nt	nt	i	1.1
O=c1oc2ccccc2cc1NCc1ccccc1O	105	0.0	-4	nt	nt	i	0.9
COc1ccc(/C=N/NC(=O)c2cccc([N+](=O)[O-])c2)cc1OC	98	nt	-1	-16	162	i	0.96
CSC1=N/C(=C\c2ccc(C)o2)C(=O)S1	72	-0.4	-5	nt	nt	i	1.1
C=CCn1c(=N)n(CC(=O)c2ccc(Br)s2)c2ccccc21	128	0.7	-10	-46	86	i	0.91
O=C(CSc1ncccc1C(=O)O)c1cccc(C(F)(F)F)c1	101	nt	-2	0	91	i	0.95
Cc1cccc(-c2nc(CN3CCCC(C(=O)NC4CCCCC4)C3)c(C)o2)c1 (configuration not stated)	104	-0.9	-2	-50	78	i	0.95
COc1ccc(NC(=O)C2CCCN2C(=O)OCc2ccccc2)cc1 (configuration not stated)	99	nt	nt	nt	nt	i	1
CN1CCN(C2=Nc3cc(Cl)ccc3Nc3ccccc32)CC1	102	0.1	-2	48	147	i	0.81
Cc1ccc(N2CC(c3nc4ccccc4[nH]3)CC2=O)c(C)c1 (configuration not stated)	105	-0.6	-2	nt	nt	i	0.81
COc1ccc(NC(=O)c2cnc(C)cn2)c2ncccc12	88	-2.0	10	-79	56	i	0.6
CC(=O)Oc1oc(-c2ccccc2)nc1C=Nc1ccc(N(C)C)cc1	96	nt	nt	nt	nt	i	1.1
Cc1nn(C)cc1C(=O)Nc1ccccc1Br	85	-0.5	-2	-3	143	i	0.95
COc1ccc(CC(NC(C)=O)C(=O)NC2CCN(S(=O)(=O)c3cccc4ccccc34)CC2)cc1OC (configuration not stated)	119	-2.3	0	-11	77	i	0.89
CCOC(=O)c1cc(C(C)=O)c(=O)n(C)c1N	99	-1.7	-2	nt	nt	i	0.88
Cc1cccc(Nc2nc(N)nc(CSc3nccn3C)n2)c1	101	-0.5	-2	51	100	i	0.92
O=C(N/N=C/c1cccnc1)c1ccc(NC(=O)C(c2ccccc2)c2ccccc2)cc1	97	-2.0	5	20	70	i	0.71
Oc1ccccc1-c1n[nH]c(=S)n1Cc1ccco1	95	-0.1	3	22	154	i	1.3
COc1ccc(CONc2ncnc3nonc23)cc1[N+](=O)[O-]	97	nt	6	29	100	i	1
Cc1ccc(-c2nc(CN3CCCCC3)cc(CN3CCCCC3)c2O)cc1	104	nt	-3	-7	117	i	0.92
COc1ccc2c(c1)C(=O)CC(O)(C(F)F)O2 (configuration not stated)	102	nt	nt	nt	nt	i	1.2
Cc1nc(C(F)(F)F)ccc1C(=O)N1CCCCC1	5.8*	nt	nt	nt	nt	i	0.9
CCn1c(CSc2ncccn2)nnc1SCC(=O)N1CCCCC1	107	nt	-10	nt	nt	i	0.99
Cc1nc2ccccc2nc1N/N=C/c1ccc(O)cc1O	104	nt	nt	nt	nt	i	0.86
O=C(Cc1ccc(Br)cc1)N1CCCCCC1	100	-1.1	0	-3	94	i	0.92
Cc1noc(C(=O)Nc2cccc(O)c2)c1Cl	102	nt	nt	nt	nt	i	1.1
CC(=O)N1CCc2cc(S(=O)(=O)NCCC3=CCCCC3)ccc21	nt	-2.1	2	-21	168	nt	nt
c1ccc(-c2nnc(CN3CCC4(CC3)OCCO4)o2)cc1	104	-0.8	-1	nt	nt	i	0.96
CCc1c(C)sc(NC(=O)CCc2ccc(OC)cc2)c1C(N)=O	101	-1.7	-4	28	57	i	0.92
CCC(=O)Nc1sc2c(c1C(=O)N(C)C)CCCCC2	99	-2.3	0	-47	149	i	0.97

The list goes on:
SMILES	RGS16-Gao HTS	GALR2 agonist	PKD1 inh	Insulin prom inh	Insulin prom inh cell count	HSV replic up	HSV replic up primary fold
Cc1cc(C)nc(N2CCC(C(=O)Nc3ccc4c(c3)OCO4)CC2)n1	102	-0.5	-5	nt	nt	i	0.82
O=C(NCCc1c[nH]c2ccccc12)Nc1ccccc1	109	-0.2	-2	0	101	i	0.92
O=c1[nH]nc(CSCc2ccccc2Cl)[nH]1	99	-2.8	-4	31	162	i	0.76
COc1ccc(CN2CCCC(CNC(=O)c3ccc(F)cc3)C2)cc1OC (configuration not stated)	105	nt	-4	nt	nt	i	1
CCOc1ccc2nc(NCCCNS(=O)(=O)c3ccccc3)c(C#N)cc2c1	104	4.1	-1	6	154	i	0.92
Cc1cccc(-n2c(SCC(=O)Nc3cccc(S(=O)(=O)NC4=NCCCCC4)c3)nc3ccccc3c2=O)c1C	71	-0.7	6	0	107	nt	nt
COc1ccc(CC(=O)NCCc2ccc(Cl)cc2Cl)cc1	100	nt	5	-14	63	i	0.71
O=S(=O)(Cc1nc2ccccc2s1)c1ccccc1	103	-1.6	-1	nt	nt	i	1.2
Cc1cc(C(=O)CN2C(=O)NC3(CCCc4ccccc43)C2=O)c(C)n1Cc1cccs1 (configuration not stated)	118	-0.1	1	nt	nt	i	0.85
O=c1cc(-c2ccccc2F)nc(-c2ccccc2F)o1	103	0.7	-7	-7	121	i	0.88
COc1ccc(CCN(C)C(=O)CSc2ncnc3sccc23)cc1OC	105	nt	-3	-29	106	i	1.1
CCN(CC)S(=O)(=O)c1cccc2c(N(C)C)cccc12	94	-0.4	11	nt	nt	i	0.9
O=C(N[C@@H](Cc1ccc(O)cc1)C(=O)O)C(c1ccccc1)c1ccccc1	109	nt	8	nt	nt	i	0.76
CC(CCc1ccccc1)NC(=O)COC(=O)c1ccccc1O (configuration not stated)	96	nt	-3	19	82	i	0.92
Cc1cc(=S)cc(C)n1CCCO	91	-0.7	-9	nt	nt	i	1.1
O=C(NCc1ccc2c(c1)OCO2)C(=O)NCC1CCCO1 (configuration not stated)	100	nt	3	nt	nt	i	0.88
COc1cccc(/C=N/NC(=O)c2c(-c3ccccc3)noc2C)c1	108	-1.2	-5	nt	nt	i	1
O=C(Nc1nccs1)c1csc2c1CCCC2	106	-0.9	-4	31	68	i	0.74
CC1(C)Cc2ccccc2C(C(Cc2ccccc2)C(N)=O)=N1 (configuration not stated)	102	nt	-2	6	132	i	1.2
COc1ccccc1NC(=O)CSc1ccc2nnc(-c3cccnc3)n2n1	103	-2.4	-3	nt	nt	i	1
Cc1cc(C)n(CC(O)COc2c(C)cccc2C)n1 (configuration not stated)	103	nt	-2	20	95	i	1.1
c1csc(CNc2nc(-c3cccs3)nc3ccccc23)c1	102	nt	-13	-7	89	i	0.89
CC1(C)CC[C@]2(C(=O)O)CC[C@]3(C)C(=CC[C@@H]4[C@@]5(C)CC[C@H](O)C(C)(C)[C@@H]5CC[C@]43C)[C@@H]2C1	110	nt	nt	nt	nt	i	0.87
CCC(CC)C(=O)Nc1ccccc1NC(C)=O	111	-0.4	-12	20	68	i	0.84
CCOc1cc(C(=O)OCC(=O)c2cc(C)n(CC3CCCO3)c2C)ccc1OCC(=O)N1CCOCC1 (configuration not stated)	101	nt	-5	29	72	i	1
O=c1c2ccccc2nc2n1C(CSCc1ccc(Cl)cc1)CS2 (configuration not stated)	103	0.2	9	-14	102	i	0.94
Cc1ccc(S(=O)(=O)N2CCC(=O)N(CCOC(=O)Nc3ccccc3C)CC2)cc1	106	0.0	-11	-41	98	i	0.82
CCOC(=O)Cn1c(=O)n(CC(=O)OCC)c2ccccc21	113	-4.9	-6	-21	71	i	0.98
S=c1[nH]nc(-c2cc(-c3ccco3)[nH]n2)n1-c1ccccc1Cl	92	-1.3	-7	14	98	i	0.97
CC(OC(=O)CN(C)S(=O)(=O)c1ccc(Cl)cc1)C(=O)Nc1ccc(N2CCOCC2)cc1 (configuration not stated)	97	-1.2	0	nt	nt	i	0.96

Four of the compounds above, field by field.
SMILES: COc1ccc(CN2CCCC(CNC(=O)c3ccc(F)cc3)C2)cc1OC (configuration not stated)
  RGS16-Gao HTS: 105
  GALR2 agonist: nt
  PKD1 inh: -4
  Insulin prom inh: nt
  Insulin prom inh cell count: nt
  HSV replic up: i
  HSV replic up primary fold: 1

SMILES: CCOc1ccc2nc(NCCCNS(=O)(=O)c3ccccc3)c(C#N)cc2c1
  RGS16-Gao HTS: 104
  GALR2 agonist: 4.1
  PKD1 inh: -1
  Insulin prom inh: 6
  Insulin prom inh cell count: 154
  HSV replic up: i
  HSV replic up primary fold: 0.92

SMILES: Cc1cccc(-n2c(SCC(=O)Nc3cccc(S(=O)(=O)NC4=NCCCCC4)c3)nc3ccccc3c2=O)c1C
  RGS16-Gao HTS: 71
  GALR2 agonist: -0.7
  PKD1 inh: 6
  Insulin prom inh: 0
  Insulin prom inh cell count: 107
  HSV replic up: nt
  HSV replic up primary fold: nt

SMILES: COc1ccc(CC(=O)NCCc2ccc(Cl)cc2Cl)cc1
  RGS16-Gao HTS: 100
  GALR2 agonist: nt
  PKD1 inh: 5
  Insulin prom inh: -14
  Insulin prom inh cell count: 63
  HSV replic up: i
  HSV replic up primary fold: 0.71

(cont.)
SMILES	RGS16-Gao HTS	GALR2 agonist	PKD1 inh	Insulin prom inh	Insulin prom inh cell count	HSV replic up	HSV replic up primary fold
O=C(NC1CCCCC1)N1CCCCCCC1	102	-0.9	2	nt	nt	i	1
O=C(Nc1cccc(Br)c1)c1ccccc1-c1ccccc1	100	-1.5	5	nt	nt	i	1.3
CC(C)(C)c1ccc(C(=O)CSc2n[nH]c(=O)[nH]c2=O)cc1	106	-2.0	-1	-49	137	i	1.1
O=C(NCc1cn(-c2ccccc2)nc1-c1ccccc1)c1ccc([N+](=O)[O-])cc1	103	-0.5	2	-68	65	i	1
CCCC(=O)NC(Nc1ccc(S(=O)(=O)Nc2cc(C)on2)cc1)(C(=O)OCC)C(F)(F)F (configuration not stated)	110	-1.1	-7	nt	nt	i	0.91
O=C(c1ccco1)N1CCN(Cc2nc(-c3cccs3)no2)CC1	99	nt	-6	nt	nt	i	0.86
Cc1cc(NC(=O)CN2CCOCC2)n(-c2ccccc2)n1	94	nt	nt	nt	nt	i	0.99
Cc1ccc(Nc2ccc(NCc3ccccc3)nn2)cc1C	100	-1.5	4	nt	nt	i	0.85
CC1CCc2c(C(=O)N3CCN(S(=O)(=O)c4cccs4)CC3)csc2C1 (configuration not stated)	82	-4.3	-2	nt	nt	i	0.89
Cc1nc2sc(C(c3ccc(Cl)cc3)N3CCN(CCO)CC3)c(O)n2n1 (configuration not stated)	106	nt	nt	nt	nt	i	0.95
Cc1ccc(N2C(=O)Nc3cc(Cl)c(Cl)cc3N2O)cc1Cl	110	nt	-6	-167	104	i	0.93
Cc1ccc(N2CCN(C(=O)N3CCOCC3)CC2)cc1C	104	nt	-3	33	72	i	0.95
COc1cc(C=O)ccc1OCCOc1ccccc1[N+](=O)[O-]	102	-1.1	8	-27	117	i	0.89
Cc1cc(C(=O)NCC2CCCO2)n(-c2ccccc2)n1 (configuration not stated)	101	-1.3	-7	nt	nt	i	0.96
CCOc1cccc(=O)c2c(C)n(-c3ccc(C(=O)O)cc3)c(C)c12	97	nt	8	nt	nt	?	nt
CCOc1ccc(NC(=S)NC(=O)/C=C/c2ccc(C)cc2)c([N+](=O)[O-])c1	97	-0.8	-1	nt	nt	nt	nt
O=C(CCS(=O)(=O)c1ccccc1)Nc1nc2c(s1)COc1ccccc1-2	81	-3.1	1	nt	nt	i	0.62
O=C(NCc1ccccc1)C1=C[C@@H](c2ccc(Br)cc2)C[C@@H](OCc2ccc(CO)cc2)O1	98	nt	1	nt	nt	i	0.91
COc1ccc(C(=O)Nc2nnc(Cc3cccs3)s2)cc1OC	85	-2.5	-26	12	53	i	0.83
CC(=O)Nc1cccc(OCCCNS(=O)(=O)c2ccc(F)cc2)c1	90	nt	nt	nt	nt	i	1
Cc1c(NC(=S)NC(=O)C(C)(C)C)cccc1[N+](=O)[O-]	50	0.3	-9	nt	nt	i	1.2
CCOC(=O)Nc1cc(NC(=O)OCC)c(C)nc1C	105	nt	nt	nt	nt	i	0.98
CCO[C@H]1OC(C(=O)NCc2nc3ccccc3[nH]2)=C[C@@H](C2CCCCC2)[C@@H]1CCCO	97	nt	8	nt	nt	i	0.82
Cc1ccc(F)c(NC(=O)C2CCCCC2C(=O)O)c1 (configuration not stated)	101	-1.1	-5	36	108	i	0.97
COc1ccc(C2C3=C(CC(C)(C)CC3=O)Oc3ncn(Cc4ccccc4)c(=N)c32)cc1 (configuration not stated)	108	1.5	4	-3	118	i	0.93
C/C(=N\N(C)C)C1=C(O)c2ccccc2C1=O	102	-1.3	-1	nt	nt	i	1.1
COc1ccc(NC(=O)c2cccnc2NCCc2ccccc2)cc1	62	-1.2	0	nt	nt	i	0.99
